# D2 PAM = positive allosteric modulators of human D2 dopamine receptor. 360,000 compounds, 0.23% hits. AID 624464. DiscoveRx D2 beta-arrestin cells, luminescence, 90 min; 100% = 57 uM dopamine signal. potentiation, % (test concentration not listed); active = potentiation of 50% or more; inconclusive = 30% to 50%; inactive = 30% or less;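 further: compound concentration not given in the record; tested on top of an EC20 dose of dopamine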
#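 D2 cells co-treated with compound plus 50 nM dopamine (EC20) for 90 min at 37 deg C to detect potentiation. Beta-arrestin recruitment was read as enzyme-fragment luminescence after 1 h at ambient temperature. Full response was set by 57 uM dopamine.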
# TRPV1 potentiator = human TRPV1 potentiation; Q8NER1; potentiation, % at 8.33 µM; TRPV1-expressing cells, Fluo-8 calcium influx, capsaicin EC20 potentiation; host cell line not named in the record; control for the full effect not named in the record; 320,000 compounds, 0.02% hits; AID 540277; active means potentiation above 80%; inconclusive means 30% to 80%; inactive means below 30%; further: 0% is about no effect
#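 Fluo-8 calcium influx in TRPV1-expressing cells, kinetic read (ex 480/em 520 nm). Compound added and read 3 min for agonist activity, followed by capsaicin at EC20 final and 2 min further read for enhancement.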
# CtBP-E1A inh = blocks the CtBP interaction with E1A; AlphaScreen GST-E1A/His-CtBP binding, 1536-well; hits give low values; control for the full effect not named in the record; activity change, % (test concentration not listed); 340,000 compounds, 0.49% hits; AID 651724; in the data active means activity change below about -65%; inconclusive means about -30% to -65%; inactive means above about -30%; further: on the % scale 0 is the no-effect control and ±100 the full control effect
#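 AlphaScreen with 125 nM GST-E1A and 125 nM His-CtBP (5X stocks) in Tris pH 8.0, 300 mM NaCl, BSA, Tween 20, TCEP. Compounds preincubated 2 h at 37 deg C, then glutathione donor/nickel acceptor beads added for 1 h at 37 deg C in dark.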
# Six1-Eya2 blk = blocks human Six1 binding to Eya2; Q15475+O00167; AlphaScreen GST-Six1/His-Eya2 binding, biochemical; hits give low values; control for the full effect not named in the record; activity change, % (no concentration beside the values); 360,000 compounds, 0.56% hits; in the data active = activity change below about -65%; inconclusive = about -30% to -65%; inactive = above about -30%; further: on the % scale 0 is the no-effect control and ±100 the full control effect
# Target sequence (O00167 whole entry, looked up): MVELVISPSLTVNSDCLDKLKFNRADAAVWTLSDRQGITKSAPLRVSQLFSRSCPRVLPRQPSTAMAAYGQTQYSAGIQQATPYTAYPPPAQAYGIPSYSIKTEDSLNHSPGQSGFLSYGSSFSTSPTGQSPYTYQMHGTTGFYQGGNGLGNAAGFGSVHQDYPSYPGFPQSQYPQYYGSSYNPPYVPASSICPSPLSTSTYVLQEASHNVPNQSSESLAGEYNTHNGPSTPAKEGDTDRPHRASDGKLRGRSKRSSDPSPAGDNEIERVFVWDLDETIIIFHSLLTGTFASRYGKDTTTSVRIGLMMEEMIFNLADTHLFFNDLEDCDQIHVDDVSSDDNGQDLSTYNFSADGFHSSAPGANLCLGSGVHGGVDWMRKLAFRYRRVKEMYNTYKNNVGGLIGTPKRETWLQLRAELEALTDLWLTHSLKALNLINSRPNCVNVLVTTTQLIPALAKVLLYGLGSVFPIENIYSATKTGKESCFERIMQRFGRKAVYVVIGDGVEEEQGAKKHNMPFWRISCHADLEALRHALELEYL
# Target sequence (Q15475 whole entry, looked up): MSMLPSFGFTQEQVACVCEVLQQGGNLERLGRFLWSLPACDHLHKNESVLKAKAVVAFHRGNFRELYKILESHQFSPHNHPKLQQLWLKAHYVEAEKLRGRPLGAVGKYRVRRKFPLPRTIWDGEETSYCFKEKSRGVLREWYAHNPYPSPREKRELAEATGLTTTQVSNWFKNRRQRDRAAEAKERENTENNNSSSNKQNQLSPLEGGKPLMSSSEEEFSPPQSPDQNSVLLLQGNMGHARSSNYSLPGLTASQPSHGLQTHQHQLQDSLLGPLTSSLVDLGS
#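 Compounds are tested against tagged Six1 and Eya2 proteins bridged by glutathione donor and nickel acceptor beads; after a one-hour incubation at 37 °C without light, AlphaScreen emission is recorded.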
# TRPML1 inh = inhibitors of human TRPML1 channel | Q9GZU1 | activity change, negative = inhibition, % (no concentration beside the values) | 390,000 compounds, 0.02% hits | AID 624415 | TRPML1-inducible cells, Ca2+ dye fluorescence, FDSS; hits give low values; inhibition of EC80 agonist-evoked calcium signal; in the data active means activity change below about -50%; inconclusive means about -30% to -50%; inactive means above about -30%;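 further: stimulus is agonist 54-4 at its EC80 concentration; on the % scale 0 is the no-effect control and ±100 the full control effect; compound concentration not given in the record; the text of the record puts the active cut at -80%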
#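 Tet-induced TRPML1-DL cells loaded with Ca8 no-wash calcium dye were read kinetically on FDSS. Compound addition was followed by EC80 agonist 54-4 (4 uM final); inhibition was read over 110 s.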
# TRPML1 agonist = agonists of human TRPML1 channel; Q9GZU1; TRPML1-expressing cells, Ca2+ dye fluorescence, FDSS; host cell line not named in the record; reference of the full effect not given here; activation, % (concentration not given with the values); 410,000 compounds, 0.12% hits; in the data active = activation above about 50%; inconclusive = about 30% to 50%; inactive = below about 30%; further: 0% is about no effect; the text of the record puts the active cut at 80%
#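 Tetracycline-induced TRPML1-DL cells are seeded and incubated overnight before loading with a no-wash Ca2+ dye and quencher. Agonist activity is taken from the 110 s fluorescence read following compound pin-transfer on an FDSS, before EC80 54-4 challenge.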
# Starred values were filed as active, the others as inactive; ? = inconclusive; . = no result given; & = joins results of further samples.
SMILES,D2 PAM,TRPV1 potentiator,CtBP-E1A inh,Six1-Eya2 blk,TRPML1 inh,TRPML1 agonist
CC(C)N1CCN(C(=O)c2cccc(Cl)c2)CC1,-5,15,-1,11,-12,0.3
Cc1onc(-c2ccccc2Cl)c1C(=O)N/N=C(\N)COc1ccc(Cl)cc1,-2,-8,5,-5,0,-0.5
COc1ccc(NC(=O)CSc2nnc(-c3cccnc3)o2)c(OC)c1,1,6,-24,0,9,-0.2
CC(C)CN1C(=O)C(=O)N(CC(=O)N(C)CC(=O)Nc2ccc(F)cc2)C1=O,-6,20,-6,6,-20,2.3
CCCOc1ccc(C(=O)NNC(=S)NC(=O)c2ccccc2[N+](=O)[O-])cc1,-13,-2,-10,-22,-7,2.8
Cc1ccc(C(=O)NNC(=O)c2ccc3ccccc3c2)cc1,-8,.,4,3,-2,0.6
COc1ccc(NC(=O)CCNS(=O)(=O)c2ccc3c(c2)c(=O)n(C)c(=O)n3C)cc1,-5,17,-18,-14,12,-0.4
CC1=C(C(=O)OCc2ccccc2)C(c2ccccc2Cl)NC(=O)N1CCCC(=O)O (stereo not given),11,-16,-2,3,-7,-0.8
CCOC(=O)Nc1cc(C(=O)OC)cc(C(=O)OC)c1,0,-2,-1,-2,-2,-0.6
Cc1cc2nc(-c3ccc(F)cc3)c(Cc3cccc(Cl)c3)n2c(C)c1Br,.,.,-18,2,.,0.2
COc1cccc(N2CC(C(=O)Nc3ccc(C(=O)OC(C)C)cc3)CC2=O)c1 (stereo not given),5,-1,-5,-2,-6,0.7
O=C(Cc1c[nH]c2ccccc12)Nc1ccccc1N1CCOCC1,-1,-3,-1,-5,-8,1.8
COc1cc(CNCc2ccc(C(=O)O)cc2)ccc1OCc1ccc(F)cc1,-15,-4,0,-7,-29,0.9
COCCn1c(SCC(=O)Nc2ccccc2C)nc2c(oc3ccccc32)c1=O,-5,0,-2,4,9,0.9
C[C@@H]1[C@H]2CCCC[C@H]2CN(C(=O)OC(C)(C)C)[C@@H]1CC(=O)c1ccccc1,.,.,-11,-6,-12,1.3
O=C(O)c1ccc(NC(=O)c2cn(-c3ccccc3)nc2-c2ccc(Cl)cc2)cc1,18,-2,8,-16,-9,-0.6
CCCCCNC(=O)c1ccc(NC(=O)CC2SC(N3CCCC3)=NC2=O)cc1 (stereo not given),3,.,3,4,-7,-0.8
NS(=O)(=O)c1cc(Br)c2c(c1)S(=O)(=O)NCN2,-1,.,5,2,-12,-0.3
CCOc1cc(NC(=O)c2ccccn2)c(OCC)cc1NC(=O)c1ccc(C)cc1,4,-6,.,-4,-16,-1.1
CSCCC(NS(=O)(=O)c1cccc(C(F)(F)F)c1)C(=O)N(C)CCOc1ccc(Cl)cc1 (stereo not given),-7,9,4,-4,-5,3.6
CCNCCC(CCC(C)C)c1ccc2c(c1)OCO2 (stereo not given),-15,8,2,-1,-3,1.4
COc1ccc(NC(=O)C(CC(=O)O)Cc2ccc(C)cc2)cc1 (stereo not given),-13,0,7,4,-10,-1.1
Cn1ncc(Br)c1NC(=O)CSc1ccc(Cl)cc1,-3,?,7,1,8,2.3
COc1ccc(C(C(C(=O)c2ccco2)N2CCOCC2)N2CCOCC2)cc1 (stereo not given),10,0,5,5,1,-0.9
COC(=O)c1ccc2c(c1)NC(=O)CS2,-2,?,9,2,-5,0.2
Cc1ccc(C(=O)NCCN2CCOCC2)c(Cl)c1,-7,-27,2,3,-8,2.1
CCNC(=S)N/N=C/c1cccs1,2,7,1,-3,8,-0.9
Cc1cccc(CSc2nnc(-c3cccs3)n2Cc2ccco2)c1,-16,11,-3,-5,-7,4.0
O=C1CC(C(=O)Nc2cccc(F)c2)n2c(nc3ccccc32)N1 (stereo not given),0,1,0,0,33,0.9
CC(C)C[C@H]1CNC(=S)N1CC1CCCN1C[C@H](CC(C)C)N1C[C@H](Cc2ccc(O)cc2)N(CC2CCCCC2)C1=S (stereo not given in full),5,.,-1,-11,2,-0.6
O=C(CN1CCCC1)Nc1nnc(-c2cccs2)s1,-9,-8,0,0,8,-0.3
COc1ccc(/C=N/NC(=O)c2cc(-c3ccccc3)nc3ccccc23)c(OC)c1,-1,7,.,-23,3,-0.3
CCOC(=O)N1CCC(NC(=O)c2cc(C(=O)Nc3ccc(S(=O)(=O)N4CCCCC4)cc3)ccc2CO)CC1,-4,-7,-2,6,0,3.1
Cc1cc(NC(=O)CSc2sc3c(O)cc(=O)[nH]c3c2C#N)ccc1Br,4,3,-1,-10,6,-0.4
COc1ccccc1OCCSc1nnc(CNC(=O)c2ccco2)n1C,-10,8,-4,3,-13,1.2
COCCN1CC(=O)N2C(c3cccc(C)c3)c3[nH]c4ccccc4c3C[C@H]2C1=O (stereo not given in full),-1,10,.,-10,-1,6.9
COCCNc1ncnc2c1ncn2[C@H]1CN(Cc2ccccc2)C[C@@H](CO)O1,-3,.,12,7,.,-0.3
CCCCN(CCCC)C(=O)CCS(=O)(=O)c1ccc2c(c1)n(C)c(=O)c(=O)n2C,-8,10,-3,3,1,0.7
Nc1ccn(C2OC(COP(=O)(O)O)C(O)C2O)c(=O)n1 (stereo not given),-1,.,0,9,14,0.1
O=C(CN1C(=O)NC(Cc2c[nH]c3ccccc23)C1=O)NC1CC1 (stereo not given),-3,-5,10,1,.,.

# Filtered by structure, those above with fluorine
SMILES,D2 PAM,TRPV1 potentiator,CtBP-E1A inh,Six1-Eya2 blk,TRPML1 inh,TRPML1 agonist
CC(C)CN1C(=O)C(=O)N(CC(=O)N(C)CC(=O)Nc2ccc(F)cc2)C1=O,-6,20,-6,6,-20,2.3
Cc1cc2nc(-c3ccc(F)cc3)c(Cc3cccc(Cl)c3)n2c(C)c1Br,.,.,-18,2,.,0.2
COc1cc(CNCc2ccc(C(=O)O)cc2)ccc1OCc1ccc(F)cc1,-15,-4,0,-7,-29,0.9
CSCCC(NS(=O)(=O)c1cccc(C(F)(F)F)c1)C(=O)N(C)CCOc1ccc(Cl)cc1 (stereo not given),-7,9,4,-4,-5,3.6
O=C1CC(C(=O)Nc2cccc(F)c2)n2c(nc3ccccc32)N1 (stereo not given),0,1,0,0,33,0.9

# Further results follow.
SMILES,D2 PAM,TRPV1 potentiator,CtBP-E1A inh,Six1-Eya2 blk,TRPML1 inh,TRPML1 agonist
COc1ccccc1OCC(=O)Nc1nnc(C2CCCC2)s1,1,28,6,0,0,-0.4
CSCC[C@H](NC(=O)N1CCn2c1nc1ccccc12)C(=O)NCc1ccc2c(c1)OCO2,5,-3,-8,-11,-1,1.6
O=C(CC1Nc2ccccc2NC1=O)NCCc1ccccc1 (stereo not given),-7,5,4,0,-7,-0.2
OC(c1ccccc1)(c1ccccc1)c1nccn1-c1ccccc1,-4,.,1,-1,1,-0.2
COCCN1C(=O)C(=O)/C(=C(/O)c2ccc(S(=O)(=O)N3CCOCC3)cc2)C1c1ccc(O)c(OC)c1 (stereo not given),-6,1,6,5,-3,0.1
COC(=O)[C@@]1(Cc2ccc(F)cc2)[C@H]2c3cc(C(=O)N4CCCC4)n(C[C@H](O)CO)c3C[C@H]2CN1C(=O)c1ccccc1,.,.,-13,4,.,0.6
O=C(c1ccc(CSc2nc3ccncc3[nH]2)cc1)N1CCCCC1,3,12,1,3,20,-0.8
CCOC(=O)CN(C(=O)COc1nc(C)cc(C)c1C#N)c1ccc(Cl)cc1,-4,-30,.,1,10,1.5
CCOC(=O)c1c(S(=O)(=O)NCC(=O)NCc2ccccc2Cl)c(C)n(C)c1C,-12,-6,-19,6,-10&-8,-0.1&1.2
CC(=O)N1c2ccc(S(=O)(=O)N3CCCC(C(=O)Nc4cccc(Cl)c4)C3)cc2CC1C (stereo not given),-10,0,-12,-7,3,0.4
Cc1ccc(C)c(OCC(=O)NNC(=O)C2CCC2)c1,1,18,.,2,12,-0.4
COCCn1c(SCC(=O)Nc2ccc(S(=O)(=O)N3CCOCC3)cc2)nc2ccccc21,-14,-4,-5,-1,20,-0.5
O=C(O)c1cccc(NS(=O)(=O)c2ccc(Cl)c(C(=O)O)c2)c1,-10,-5,5,5,-9,-0.5
COC(=O)[C@H](Cc1ccccc1)NC(=O)N1CCN(c2ccc(F)cc2)CC1,3,-21,-1,0,-6,1.0
COc1ccc(NC(=O)C2CC(=O)n3ncnc3N2)cc1 (stereo not given),-3,-20,7,3,-13,0.7
CC1(C)CC(=NOC(=O)c2ccccc2)CC(C)(C)N1O,?,1,1,25,14,0.1
Cn1cccc1-c1nc2ccccc2[nH]1,-6,-10,3,-3,-3,-0.3
CN(Cc1ccccc1)S(=O)(=O)c1ccc2[nH]c(=O)oc2c1,1,-10,5,-1,18,-1.2
N#CCCN(Cc1cccnc1)C(=S)Nc1ccc(OC(F)F)cc1,-3,3,4,-3,-2,-0.9
O=C(/C=C/c1ccc(F)cc1)Nc1cccc(S(=O)(=O)Nc2cccc(C(F)(F)F)c2)c1,8,3,10,4,-7,-0.2
O=c1c2ccccc2c(C=NCc2ccccn2)c(O)n1-c1ccccc1Cl,-4,5,0,5,22,-0.1
Cc1ccsc1C(=O)N(c1nc2ccccc2s1)c1c(C)cccc1C,-5,-3,-2,0,28,-0.2
Cc1ccc(C(=O)O)cc1-c1ccc(/C=C2/NC(=O)N(c3ccccc3)C2=O)o1,-20,?,-20,-74*,10,5.1
Cc1ccc(CN2CCCC(CO)(Cc3ccccc3C)C2)s1 (stereo not given),-7,-8,0,6,2,1.2
CC(=O)c1ccc(OCC(=O)OC(C)C(=O)NC2CCCCC2C)cc1 (stereo not given),11,0,.,6,3,-1.2
O=C(NC(c1ccc(Cl)cc1)c1ccsc1)C1CCN(Cc2cccc(C(F)(F)F)c2)CC1 (stereo not given),-20,.,-4,-6,.,0.4
c1ccc(C(c2ccccc2)N2CCN(Cc3nnnn3C3CCCCC3)CC2)cc1,-6,-4,-6,8,-8,1.3
COc1cccc(C2=NOC(C(=O)Nc3cccnc3Cl)C2)c1 (stereo not given),-3,-3,1,2,-1,-0.4
COCCCNC(=O)c1ccc(CSCc2ccc(C)cc2)o1,-4,-25,-11,4,21,-1.5
O=C1CS/C(=N/N=C\c2ccn[nH]2)N1,-4,0,-3,-5,-5,0.0
COc1cccc(C(=O)NCCN2CCOCC2)c1,-13,5,-10,1,20,0.9
O=C(NNS(=O)(=O)c1ccc(F)cc1)c1cc2ccccc2cc1O,4,1,7,17,8,1.3
C/C(=C\c1ccc(Br)cc1)C(=O)c1c(C)cc(C)[nH]c1=O,-2,0,5,-6,6,0.8
CC1CCN(S(=O)(=O)c2cn(CC(=O)N3CC(C)CC(C)C3)c(=O)c3ccccc23)CC1 (stereo not given),0,3,-1,9,8,-1.2
Cn1cc(S(=O)(=O)Nc2cccc3ccccc23)c(=O)n(C)c1=O,1,3,-4,10,-10,0.6
Cc1cc(/C=C2/C(=O)N(C)C(=S)N2C)ccc1N1CCCC1,3,16,?,?,-7,?
CCOC(=O)c1ccccc1NC(=O)Cc1ccc(S(=O)(=O)N2CCCC2)s1,4,.,-3,-6,11,2.6

# Looked up one by one from above (2):
SMILES,D2 PAM,TRPV1 potentiator,CtBP-E1A inh,Six1-Eya2 blk,TRPML1 inh,TRPML1 agonist
Cc1ccsc1C(=O)N(c1nc2ccccc2s1)c1c(C)cccc1C,-5,-3,-2,0,28,-0.2
O=C(NNS(=O)(=O)c1ccc(F)cc1)c1cc2ccccc2cc1O,4,1,7,17,8,1.3

# Bioassay records as filed in PubChem BioAssay.
